# Source: PubChem (several laboratories)
# CBX7 inh: CBX7 chromodomain binding inhibitors, primary screen, biochemical, AlphaScreen; Chromobox protein homolog 7 (Homo sapiens), O95931; actives 1.1% (n = 66,000); AlphaScreen His6-CBX7 / biotin-H3K27me3 peptide binding; hits give low values; normalised signal (fraction of DMSO) (concentration not given with the values); AID 1224903, 2016; in the data active means normalised signal below about 0.5;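 further: 100 nL library stock added to about 20 µL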
# Target sequence (O95931 whole entry, looked up): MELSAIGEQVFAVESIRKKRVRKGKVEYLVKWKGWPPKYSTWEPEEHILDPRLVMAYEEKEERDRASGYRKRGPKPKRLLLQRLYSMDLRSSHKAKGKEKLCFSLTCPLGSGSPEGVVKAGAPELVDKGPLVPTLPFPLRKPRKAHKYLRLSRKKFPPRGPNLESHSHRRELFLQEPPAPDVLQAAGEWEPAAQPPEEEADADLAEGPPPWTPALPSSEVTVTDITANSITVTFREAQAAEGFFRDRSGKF
# CBX7 inh z-score: also measured in CBX7 inh; calls as there; z-score; measured here: z-score of CBX7 signal; some inactives read as strong as hits; reference of the scale not given here;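 same signal on another scale; lower means less binding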
# The depositor's hits bear a star; & = joins results of further samples.
SMILES | CBX7 inh | CBX7 inh z-score
Cc1ccc(Nc2nc3ccccc3nc2NS(=O)(=O)c2ccc(Cl)cc2)c(C)c1 | 1.1 | 1.7
CCCCOc1ccc(C2C(N3C(=O)c4ccccc4C3=O)C(=O)N2c2ccc(C)c(F)c2)cc1 (centres undefined) | 0.93 | -2.1
COc1cccc(-c2nc(CS(=O)(=O)CC(=O)Nc3ccccc3C)c(C)o2)c1 | 1 | -0.051
CC1CCN(CCCNC(=O)c2cc3c(-c4ccc(Cl)cc4)nn(C)c3s2)CC1 | 1 | -0.0048
O=C(Nc1ncccn1)C1CCCN1S(=O)(=O)c1ccc(Cl)c(Cl)c1 (centres undefined) | 0.8 | -1.9
COc1cccc(NS(=O)(=O)c2ccc3c(c2)CCN3C(=O)C2CCC2)c1 | 0.98 | -0.56
CC(CNC(=O)C1CCN(C(=O)c2cnn(-c3ccccc3)c2-n2cccc2)CC1)c1ccccc1 (centres undefined) | 1.2 | 1.2
CCOc1ccc(Nc2cc(C(=O)NCc3ccc(F)cc3)c3ccccc3n2)cc1 | 1 | -0.081
Cc1cc2cc(CCNC(=O)c3ccc(C(C)(C)C)cc3)c(=O)[nH]c2cc1C | 1 | 0.24
COc1ccc(-n2nc(C(=O)NCC(=O)NC3CCCCCC3)c3ccccc3c2=O)cc1 | 1.1 | 1.4
CCCOc1ccc(-c2nc(OCC)c3ccccc3n2)cc1 | 1.3 | 9
O=C(c1ccc2c(c1)N(Cc1ccc(Cl)cc1)C(=O)c1ccccc1S2=O)N1CCCC1 (centres undefined) | 0.95 | -0.97

# Given with two lines to a compound: 7 of the compounds above
# Results follow in this order: CBX7 inh | CBX7 inh z-score
COc1cccc(NS(=O)(=O)c2ccc3c(c2)CCN3C(=O)C2CCC2)c1
 : 0.98 | -0.56
CC(CNC(=O)C1CCN(C(=O)c2cnn(-c3ccccc3)c2-n2cccc2)CC1)c1ccccc1 (centres undefined)
 : 1.2 | 1.2
CCOc1ccc(Nc2cc(C(=O)NCc3ccc(F)cc3)c3ccccc3n2)cc1
 : 1 | -0.081
Cc1cc2cc(CCNC(=O)c3ccc(C(C)(C)C)cc3)c(=O)[nH]c2cc1C
 : 1 | 0.24
COc1ccc(-n2nc(C(=O)NCC(=O)NC3CCCCCC3)c3ccccc3c2=O)cc1
 : 1.1 | 1.4
CCCOc1ccc(-c2nc(OCC)c3ccccc3n2)cc1
 : 1.3 | 9
O=C(c1ccc2c(c1)N(Cc1ccc(Cl)cc1)C(=O)c1ccccc1S2=O)N1CCCC1 (centres undefined)
 : 0.95 | -0.97

# (listing goes on)
SMILES | CBX7 inh | CBX7 inh z-score
COc1cc2c(cc1OC)C(c1ccc(Cl)cc1Cl)CC(=O)N2 (centres undefined) | 0.99 | -0.1
COCCCNC(=O)c1cc(Nc2ccccc2OC)nc2ccccc12 | 1.1 | 1.9
CCCCSCCCNC(=O)CSCc1nc(-c2ccc(Cl)cc2)oc1C | 1 | 0.3
CC1CCCN(CCCNC(=O)Cn2ncc3c2-c2ccccc2OC3)C1 (centres undefined) | 1.1 | 0.41
CN(C)CCn1c(=N)n(CC(O)c2ccc(Cl)c(Cl)c2)c2ccccc21 (centres undefined) | 1.1 | 2.8
COc1ccc(NC(=O)C2CC(c3ccc(OC)c(OC)c3)=NO2)cc1OC (centres undefined) | 1 | 1.2
Cc1cccc(-n2nc3c(c2NC(=O)Cc2cccs2)CSC3)c1C | 0.85 | -4.2
Cc1ccc(C(=O)CC(Nc2ccc3ccccc3c2)c2cccnc2)cc1 (centres undefined) | 0.84 | -1.8
Nc1nonc1-c1nc2ccccc2n1Cc1cccc(F)c1 | 1 | 1
Clc1ccc(-c2nc3cnccn3c2Nc2ccc3c(c2)OCCO3)s1 | 0.89 | -1.2
Cc1cc2cc(CCNC(=O)CC(C)(C)C)c(=O)[nH]c2cc1C | 1 | 0.52
CN(Cc1ccccc1)S(=O)(=O)c1ccc(C(=O)Nc2ccc(-c3nc4ccccc4[nH]3)cc2)cc1 | 1 | 0.66
CCOc1ccc(NC(=O)CSc2ccc3nnc(-c4ccccc4)n3n2)cc1 | 1.1 | 1.7
CCn1c(SCC(=O)NCc2ccc(F)cc2)nnc1-c1cccnc1 | 1 | 1.1
CCCN1CCN(C(=O)c2cn(-c3ccc(C)c(C)c3)c(=O)c3ccccc23)CC1 | 0.99 | -0.2
CCOc1ccc(-n2cc(-c3ccccc3)c3c(Nc4ccccc4OC)ncnc32)cc1 | 1 | 0.68
COc1ccc(OC)c(C2=NOC(C(=O)N(C)C3CCCCC3)C2)c1 (centres undefined) | 0.92 | -1.4
CCCn1c(C(C)NC(=O)c2ccccc2OC)nc2ccccc21 (centres undefined) | 0.9 | -1.1
COCCNC(=O)Cn1cnc2ccc(S(=O)(=O)N3CCC(C)CC3)cc2c1=O | 0.99 | -0.34
CCOC(CNC(=O)CN1C(=O)COc2ccc(S(=O)(=O)N3CC(C)CC(C)C3)cc21)OCC (centres undefined) | 1.1 | 0.92
COc1ccc(OC)c(-c2cc(C(=O)N(C)Cc3c(C)nn(C)c3C)c3ccccc3n2)c1 | 1.2 | 2.2
Cc1ccc2nc(NC(=O)CC(C)CC3=NS(=O)(=O)c4ccccc4N3)sc2c1 (centres undefined) | 0.89 | -0.84
COc1ccc(Cl)cc1N1CC(c2nc3ccccc3n2Cc2ccccc2C)CC1=O (centres undefined) | 0.93 | -1.4
COc1ccc(NC(=O)C2CCN(S(=O)(=O)c3cccnc3)CC2)cc1OC | 1 | 1.3
Cc1ccccc1Cc1c(C)nc2nc(SCC(=O)NC3CCCCC3C)nn2c1C (centres undefined) | 0.97 | -0.052
Cc1ccc(Cc2c(C)nc3nc(SCC(=O)NC4CCCC(C)C4C)nn3c2C)cc1 (centres undefined) | 1.2 | 1.2
CCOc1ccc(OCC)c(NC(=O)C2(S(=O)(=O)c3ccc(Cl)cc3)CC2)c1 | 1.1 | 1.4
Cc1nccc2[nH]c(=O)c(C(=O)NC(C)CCc3ccccc3)cc12 (centres undefined) | 0.91 | -1.8
CCOCCCNC(=O)c1cc2c(-c3ccc(OC)c(OC)c3)nn(C)c2s1 | 0.94 | -0.74
CN(C)CCNC(=O)c1ccc2c(c1)NC(=O)c1ccccc1S2 | 0.89 | -1.7
COc1ccc(C(=O)N(Cc2nc(-c3ccc(C)cc3)no2)C(C)C)cc1OC | 1.2 | 3.7
Cc1ccc(CN2C(=O)CSC2c2cn(-c3ccccc3)nc2-c2ccccc2)cc1 (centres undefined) | 0.83 | -4.2
O=C(Nc1nc(-c2nc3ccccc3s2)cs1)c1cccc(Oc2ccccc2)c1 | 1.1 | 0.5
COc1cccc(-c2nn(C)c3sc(C(=O)Nc4ccc(F)cc4F)cc23)c1 | 0.98 | -0.27
Cc1ccc2nc(-c3ccc(N)cc3)sc2c1S(=O)(=O)O | 0.81 | -2.3
Cc1ccc(-c2nc(NC(=O)CSc3n[nH]c(N)n3)ns2)cc1 | 1 | 1.1
Cc1c(C(=O)N2CCC(C)CC2)oc2ccc(S(=O)(=O)N3CCCC3)cc12 | 1 | 0.63
COc1cc2c(cc1OC)C(c1ccccc1OC)CC(=O)N2 (centres undefined) | 1.1 | 2
O=C(O)c1c2c(nc3ccc(S(=O)(=O)N4CCC(C(=O)NC5CCCC5)CC4)cc13)CCCCC2 | 1 | -0.14
CCOc1cc2c(cc1OCC)C(c1ccc(OC)c3ccccc13)NCC2 (centres undefined) | 0.81 | -3
O=C(Nc1nc2c(s1)CCc1ccccc1-2)c1ccc(Oc2ccccc2)cc1 | 1 | 0.2
N#Cc1c(NC(=O)c2cc(-c3ccc(F)cc3)on2)sc2c1CCC2 | 0.99 | -0.017
O=C(Cn1nc(Cc2cccnc2)c2ccccc2c1=O)N1CCCC1 | 1.1 | 2.3
CCC(C)Nc1nc(-c2ccccc2F)nc2ccccc12 (centres undefined) | 0.96 | -1.1
CCCn1c(C(O)c2cccc3ccccc23)nc2ccccc21 (centres undefined) | 0.93&0.8 | -1.9&-0.92
COc1cccc(CNC(=O)C(NS(=O)(=O)c2ccc3nc(C)sc3c2)C(C)C)c1 (centres undefined) | 1 | 0.0035
Cc1c(C)n(CC(O)CNC(C)(C)C)c2ccccc12 (centres undefined) | 1 | 0.93
CCOC(=O)CNc1c(N2CCN(C)CC2)c(=O)c1=O | 1 | 0.15
COc1ccc(CCN2C(=O)N(c3ccc(F)cc3)C(=O)C2CC(=O)Nc2ccc(F)cc2)cc1 (centres undefined) | 0.89 | -0.48
COc1ccc(Cl)cc1NC(=O)C(=O)NCC1CCCO1 (centres undefined) | 1.1 | 1.9
Cc1ccc2c(c1)NC(=O)C(CC(=O)NCCCN1CCCC1)O2 (centres undefined) | 1 | 0.87
COc1ccc(Oc2nc(-c3ccccc3)c3cc(Br)ccc3n2)cc1 | 1.1 | 1.7
CCC1=Nc2cc(C(=O)NCc3ccc(OC)cc3)ccc2Sc2ccc(Br)cc21 | 0.84 | -8
CCOC(=O)N1CCC(NC(=O)CN2C(=O)CSc3ncccc32)CC1 | 1 | 0.042
CCC(=O)N1c2ccc(S(=O)(=O)Nc3cccc(OC)c3)cc2CC1C (centres undefined) | 1.2 | 0.87
Cc1ccccc1NC(=O)CN1C(=O)CSc2ccccc21 | 1 | 0.59
COc1cccc(CN2C(=O)c3ccccc3C2C(=O)NC2CCCC2)c1 (centres undefined) | 0.77 | -2.7
COc1ccc(OCc2nc(C#N)c(NCCc3ccc(OC)c(OC)c3)o2)cc1 | 0.62 | -2.4
Cc1onc(-c2ccccc2Cl)c1C(=O)NCc1cccnc1 | 1.1 | 2.1
CC(C)CN(CCCNC(=O)C1CCN(C(=O)c2cc3sccc3n2C)CC1)CC(C)C | 0.99 | -0.26

# Further compounds follow:
SMILES | CBX7 inh | CBX7 inh z-score
CCCc1ccc(Oc2cn[nH]c2-c2ccc(OCC)c(C)c2O)cc1 | 0.81 | -3
Cc1cccc(C(=O)Nc2nnc(-c3ccc(C(C)(C)C)cc3)s2)c1 | 0.94 | -0.13
C=CCNc1nc(-c2ccc(OC)c(OC)c2)cs1 | 0.64 | -5.3
Cc1nnc(-c2cccc(Cn3nnc(-c4ccccc4)n3)c2)o1 | 0.99&1.1 | -0.58&1
COc1ccccc1CNC(=O)C1CCN(c2nc3ccc(C)cc3s2)CC1 | 1 | 0.26
CCn1cc(C(=O)NCC2COc3ccccc3O2)c(=O)c2ccc(C)nc21 (centres undefined) | 1.1 | 1
O=C(C1CCN(c2nnc(-n3cccc3)s2)CC1)N1CCN(Cc2ccc3c(c2)OCO3)CC1 | 0.97 | -1.1
Cc1oc(-c2cccc(Cl)c2)nc1CN1CCCC(C(=O)NC(C)c2ccc3c(c2)OCCO3)C1 (centres undefined) | 0.96 | -1.2
CCCCCCOc1ccc(OCC(O)Cn2cnc3ccccc32)cc1 (centres undefined) | 0.82 | -4.5
Cc1ccccc1Cc1c(C)nc2c(C(=O)NCc3ccccc3)cnn2c1C | 1 | 0.21
Cc1cccc(-n2ccnc2SCC(=O)Nc2nnc(C)s2)c1 | 0.97 | -0.034
O=C(CS(=O)(=O)c1nc(-c2ccc3c(c2)OCO3)cn1-c1ccccc1)Nc1cccc(Cl)c1 | 0.93 | -3
N=c1n(Cc2ccc(Cl)cc2)c2ccccc2n1CC(O)COc1ccccc1 (centres undefined) | 0.88 | -3.8
CCc1ccccc1NC(=O)c1cc(C2CC2)on1 | 0.97 | -0.38
N#CC1=C(N)Oc2cc(O)ccc2C1c1cccnc1 (centres undefined) | 1.1 | 0.9
CCCN1CCCc2cc(CN(CCCOC)C(=O)Nc3ccc(OCC)cc3)ccc21 | 0.23* | -15*
COc1ccccc1CNC(=O)CSCc1nc(-c2ccccc2Cl)oc1C | 0.87 | -0.17
COc1cccc(-c2nn(C)c3sc(C(=O)Nc4cccc(C#N)c4)cc23)c1 | 0.98 | -0.52
Cc1ccc(-n2nc(C)c3c(C)c(CCC(=O)NCc4ccccn4)c(C)nc32)cc1 | 0.92 | -0.57
N#Cc1nc(COc2ccccc2Cl)oc1NCc1ccc2c(c1)OCO2 | 0.88 | -5.3
O=S(=O)(NCc1nc2ccccc2[nH]1)c1ccc(Cl)cc1 | 0.99 | -0.087
CC(=O)Nc1ccc(NC(=O)Nc2ccc3c(c2)N(C)C(=O)CS3)cc1 | 1 | 0.63
COc1ccc(Cl)cc1Nc1nc(C)nc2sc(C)cc12 | 1 | 0.89
Cc1ccc(C(=O)Nc2ccccc2C(=O)O)cc1S(=O)(=O)N1CCCCC1 | 1.1 | 0.52
COc1ccc(OC)c(Nc2cc(C)nc3nc(C)nn23)c1 | 0.89 | -1.2
CCn1cc(C(=O)NCCc2ccc(Cl)cc2)c(=O)c2ccc(C)nc21 | 0.97 | -0.29
COc1ccccc1CNC(=O)C1C2C=CC3(CN(Cc4ccccc4Cl)C(=O)C13)O2 (centres undefined) | 0.98 | -0.97
Cc1nn(-c2nc(-c3ccc(F)cc3)cc(C(F)(F)F)n2)c(C)c1Cl | 1.2 | 4.6
O=C(NCCc1ccc(Cl)cc1)c1ccc2c(c1)ncn2C1CCCCC1 | 1 | 0.31
O=C(NCc1ccccc1)N1CCC(N2CCCCC2)CC1 | 1 | 2.1
O=C(Nc1ccc(F)c(Cl)c1)c1cccc(NC2=NC3CS(=O)(=O)CC3S2)c1 (centres undefined) | 1 | 1.8
CCCOc1ccccc1NC(=O)CC1Nc2ccccc2NC1=O (centres undefined) | 0.99 | -0.36
CCCCc1nn(-c2cc(Cl)ccc2OC)c2c1C(=O)CC(C)(C)C2 | 1 | 0.0048
Cc1ccc(C2CC(C(F)(F)F)n3nc(C(=O)NCCN4CCOCC4)cc3N2)cc1 (centres undefined) | 0.99 | -0.19
COc1ccc(Cn2nnc3c(=O)[nH]c(C(=O)NCc4ccc(F)cc4)nc32)cc1 | 1 | 0.2
CC(C(=O)NCc1ccc(Cl)cc1)C1Sc2ccccc2N(Cc2ccccc2F)C1=O (centres undefined) | 1 | 0.86
CCOc1ccc(-c2ncnn2-c2cccc(Cl)c2C)cc1 | 1.1 | 0.9
O=C(NCc1ccc2c(c1)OCO2)c1ccc2c(c1)NC(=O)c1ccccc1N2 | 1.1 | 0.42

# Only part of the results is shown. The share of hits here may be higher or lower than overall.
